HSD17B inhib: inhibitors of human HSD17B10 dehydrogenase; recombinant HSD17B10, NADH fluorescence kinetic; many of its hits are not listed in these tables; hit rate 7.6% among 75,000; Potency, µM (series often up to 57.1 µM), for inactives: top-dose activity change, negative = inhibition, hits mostly inhibitors; Q99714; active = well fitted inhibition curve with a large enough effect; inconclusive = small, poorly fitted or top-dose-only effect; inactive = no such curve, though single readings can be large or run the other way;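 also: the protocol describes HADH2 (HSD17B10) and not the HSD17B4 of the title; nearly all actives have a fitted effect of over 70% in size; most hits overshoot -100% by far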
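Enzyme plus compound, 15 min room temperature; substrate mix added (NAD+ 1 mM, beta-hydroxybutyryl-CoA 90 uM final); plates read kinetically for NADH fluorescence. HADH2 was His-tagged, E. coli-derived, 20 nM.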
Active calls of the source: *; ? = inconclusive; [ ] = another dose, or the depositor's remark. % is scaled to controls: 0 for no effect and ±100 for the full control effect; potency is read from the fitted curve at half-maximal effect. This is a subset (hit frequency here may not be typical).

The opening four compounds, to show the layout:
No.	SMILES	HSD17B inhib
1	CCOC(=O)C1CCN(C(=O)c2cc3c(-c4ccc(OC)c(OC)c4)nn(C)c3s2)CC1	-12%
2	Cc1[nH]n2c(=O)cc(C(C)C)nc2c1-c1ccccc1	32µM*
3	CCOC(=O)N/N=C1/C[C@@H](O)[C@@H](O)[C@@H]2[C@@H]3C(=O)N([C@@H](C)c4ccccc4)C(=O)[C@H]3CC[C@@H]12	2%[11.4 µM]
4	CC1CCCCC1NC(=O)c1nn(C)c(=O)c2ccccc12 (stereo unspecified)	8%

All compounds of this part (from the top)
No.	SMILES	HSD17B inhib
1	CCOC(=O)C1CCN(C(=O)c2cc3c(-c4ccc(OC)c(OC)c4)nn(C)c3s2)CC1	-12%
2	Cc1[nH]n2c(=O)cc(C(C)C)nc2c1-c1ccccc1	32µM*
3	CCOC(=O)N/N=C1/C[C@@H](O)[C@@H](O)[C@@H]2[C@@H]3C(=O)N([C@@H](C)c4ccccc4)C(=O)[C@H]3CC[C@@H]12	2%[11.4 µM]
4	CC1CCCCC1NC(=O)c1nn(C)c(=O)c2ccccc12 (stereo unspecified)	8%
5	O=C(COC(=O)c1cnccn1)Nc1ccc(Cl)cc1	-5%
6	O=C1C(O)CC2c3ccccc3CC3(CCCC3)N12 (stereo unspecified)	-5%
7	COc1cc2oc(-c3ccccc3)cc(=O)c2cc1O	16µM*
8	Cc1ccc(N2C(=O)c3ccccc3C2Nc2ccccc2F)nc1 (stereo unspecified)	1%
9	COC(=O)c1cn(CC(=O)N2CCCCCC2)c2ccccc12	8%
10	Cc1noc(C)c1COC(=O)CCOc1ccccc1	6%
11	Cc1nnc(SCC(=O)Nc2nc3c(s2)CC(C)CC3)s1 (stereo unspecified)	-4%
12	CCOC(=O)C1=C(C)Nc2ccccc2N=C1NC(=O)CCCN1C(=O)c2ccccc2C1=O	-2%
13	CCOC(=O)C1=C(C)NC(C)=C(C(=O)OCC)C1C1=COCCO1	-4%
14	O=c1cc2n(c(=O)[nH]1)CCC1=C2CCCC1	?
15	CCOC(=O)C(C(C)=O)=C1SC2CS(=O)(=O)CC2S1 (stereo unspecified)	-15%
16	Cc1ccc([C@@H](O)c2cnc(C)n2Cc2ccccc2)cc1	4%[11.4 µM]
17	CCCn1c(NC(=O)c2ccc(Cl)c(S(=O)(=O)N3CCCC3)c2)nc2ccccc21	32µM*
18	Cc1ccc(-c2nnc(SCC(=O)Nc3ccc(S(=O)(=O)N4CCCCCC4)cc3)o2)cc1	1%
19	CC(=O)OC(C)C[N+](C)(C)C (stereo unspecified)	0%
20	CCOC(=O)Nc1cc2c(C)cc(=O)oc2cc1C	32µM*
21	O=P(c1ccccc1)(c1ccccc1)C(c1ccco1)N1CCOCC1 (stereo unspecified)	-9%
22	O=C(Cn1nnc(-c2ccc3c(c2)OCO3)n1)N1CCOCC1	7%
23	COc1ccccc1N1CCN(S(=O)(=O)c2ccccc2F)CC1	-1%
24	CN(CCNC(=O)CN1CCN(Cc2ccccc2Cl)C1=O)Cc1ccccc1	0%
25	Cc1cc(C)c(S(=O)(=O)N(C)Cc2cnn(C)c2)c(C)c1	2%
26	O=C(O)c1ccccc1C(=O)Nc1n[nH]c(=S)s1	16µM*
27	O=C(NCc1cccnc1)c1c(F)c(F)c(F)c(F)c1F	-8%
28	Clc1ccccc1-c1nnc2sc(-c3ccc4c(c3)OCO4)nn12	32µM*
29	COc1ccc(C2=NOC(C(=O)NCc3ccc(F)cc3)C2)cc1OC (stereo unspecified)	-3%
30	C[C@H](N)c1nnc(SCc2ccc(Cl)cc2Cl)o1	-2%
31	CC(C)C12CN3CC(C(C)C)(CN(C1)C31C(=O)Nc3ccccc31)C2=O (stereo unspecified)	2%
32	O=C(CSc1nnc(Cc2ccccc2)o1)Nc1ccc(Br)cn1	12%
33	CCC(C)(C(=O)NC1CCCC1)N(CC1CCCO1)C(=O)CNC(=O)c1ccccc1 (stereo unspecified)	0%
34	Clc1ccc(Cn2cccc2C2=NCCO2)cc1	-8%
35	CCOc1cccc(N2C(=O)CC(n3cnc4ccccc43)C2=O)c1 (stereo unspecified)	1%
36	Cc1cc(C(=O)Nc2cccnc2)on1	7%
37	CCOC(=O)C1CCCN(C(=O)CNC(=O)Cn2ccc3ccccc3c2=O)C1 (stereo unspecified)	-2%
38	CCN(CC)S(=O)(=O)c1ccc(C(=O)C(C#N)c2ccccn2)cc1 (stereo unspecified)	7%
39	COc1cccc(N2CCN(C(=O)C3CCCN(S(=O)(=O)c4cnc[nH]4)C3)CC2)c1 (stereo unspecified)	14%
40	CCOc1ccc(NC(=O)c2ccccc2NC(=O)CN2CCN(C(C)=O)CC2)cc1	11%
41	COc1ccc2c(c1)C(C)=CC(C)(C)N2C(=O)C(C)N1C(=O)c2ccccc2C1=O (stereo unspecified)	-4%
42	Cn1c(=O)c2c(nc(N/N=C\c3ccccc3C(=O)O)n2C)n(C)c1=O	4%[11.4 µM]
43	CCNc1nc(NC(C)C)nc(Oc2ccc(OCCOc3ccc(C)cc3)nn2)n1	0%
44	c1ccc(-c2nc(-c3ccco3)cs2)nc1	32µM*
45	O=c1[nH]ncc2c3ccccc3n(Cc3ccccc3F)c12	-4%
46	Cc1cc(C)cc(OCC(=O)Nc2ccc(N3CCN(S(C)(=O)=O)CC3)cc2)c1	2%
47	Cc1ccc(S(=O)(=O)N2CCC(C(=O)N[C@@H](C)C(=O)NCCc3ccccc3)CC2)cc1	9%
48	CCOc1ccccc1N(CC(=O)N1CCCCCC1)S(C)(=O)=O	6%
49	Cc1ccccc1-c1nc(CS(=O)(=O)CC(=O)NCc2ccccc2)c(C)o1	-5%
50	CC(=O)N(CCCN(C)C)CCC(C)CCC=C(C)C (stereo unspecified)	1%
51	CCOC(=O)N1CCN(C(=O)CCCn2nc(C)c3sc4ccccc4c3c2=O)CC1	?
52	COc1ccc(N2CC(C(=O)NCc3ccccc3)CC2=O)cc1 (stereo unspecified)	0%
53	CC1=C(C(=O)Nc2cc(-c3cccc(F)c3)[nH]n2)C2(CCCCC2)OC1=O	?
54	O=C(Cn1c(NCCCO)nc2ccccc21)c1ccco1	8%
55	COC(=O)C1=C(C)NC(=O)C1(NC(=O)CN1CCCC1=O)C(F)(F)F (stereo unspecified)	9%
56	CCOc1cc(NC(=O)c2ccco2)c(OCC)cc1NC(=O)COc1ccccc1C	-15%
57	CCOc1ccc(N2CC(C(=O)NC(C)C)CC2=O)cc1 (stereo unspecified)	8%
58	O=C(CCS(=O)(=O)Cc1ccccc1)Nc1nc2c(s1)CCCC2	-1%
59	CCn1nnc(NC(=O)CSc2ccc(Cl)cc2)n1	-26%
60	CCOC(=O)c1cccc(NC(=O)CN(c2ccc(OC)cc2)S(=O)(=O)c2c(C)noc2C)c1	12%

The closing 3 records of the section above lead into the next:
No.	SMILES	HSD17B inhib
58	O=C(CCS(=O)(=O)Cc1ccccc1)Nc1nc2c(s1)CCCC2	-1%
59	CCn1nnc(NC(=O)CSc2ccc(Cl)cc2)n1	-26%
60	CCOC(=O)c1cccc(NC(=O)CN(c2ccc(OC)cc2)S(=O)(=O)c2c(C)noc2C)c1	12%
61	Cc1cc(C)n(Cc2ccc(F)cc2)c(=O)c1C#N	?
62	CCC(=O)Nc1cc2nn(-c3ccccc3)nc2cc1Cl	?
63	CCCCC(=O)Nc1ccc(NC(=O)C2CC2)nc1	-3%
64	Nc1nc(Cl)nc2c1ncn2[C@@H]1O[C@@H](COP(=O)(O)OP(=O)(O)OP(=O)(O)O)[C@@H](O)[C@H]1O	6%
65	CC(C)C1(C)C(=O)N=C2c3ccccc3C(=O)N21 (stereo unspecified)	0%
66	CCOC(=O)c1sc(NC(=O)CSc2nnc(-c3ccc(OC)cc3)n2CCOC)nc1C	-11%
67	CCCCOCCCNS(=O)(=O)Cc1ccccc1	-2%
68	COc1ccccc1OCc1nc(C#N)c(N2CC(C)CC(C)C2)o1 (stereo unspecified)	-6%
69	COc1ccc(CCNC(=O)c2[nH]c(C)c(C(C)=O)c2C)cc1OC	-3%
70	CC(CCN(C)C)OC(=O)c1ccc(C(C)c2ccccc2)o1 (stereo unspecified)	11%
71	NS(=O)(=O)c1cc(C(=O)O)c(Cl)c([N+](=O)[O-])c1Cl	7%[11.4 µM]
72	CCN(C(=O)Cc1cccs1)c1nnc(-c2cccnc2)s1	108%[activator]
73	O=C(NCCN1C(=O)CSC1=O)C1CC(=O)N(c2ccccc2)C1 (stereo unspecified)	3%
74	O=C1c2oc3ccccc3c(=O)c2C(c2ccc(Br)cc2)N1c1ncccn1 (stereo unspecified)	6%
75	CCSCc1nnc(SCC(=O)c2ccc(OC)cc2)n1C	5%
76	N#Cc1nc(N2CCCCC2)nc(N2CCOCC2)n1	-2%
77	CCC(C)NC(=O)CSC1=Nc2ccccc2C2=NC(CC(=O)NCc3ccc(F)cc3)C(=O)N12 (stereo unspecified)	32µM*
78	O=C(CSc1nc2sc3c(c2c(=O)n1-c1ccccc1)CCCC3)NCc1ccco1	?
79	Cc1ccc(NC2=NC(c3ccco3)n3c(nc(C)cc3=O)N2)c(C)c1 (stereo unspecified)	2%
80	O=C(CCn1c(=O)oc2ccccc21)N1CCN(c2ccc(F)cc2)CC1	4%
81	COc1ccc(O[C@H]2C=C[C@@H](c3ccccc3)O[C@@H]2CO/N=C\[C@@H](C)[C@H](OCc2ccccc2)C(C)C)cc1	-2%[11.4 µM]
82	O=C(NCCO)c1ccc(Cl)c(Cl)c1	2%
83	CC1CCN(c2nc3ccc(C(=O)O)cc3s2)CC1	5%
84	CCOC(=O)c1ccc(Nc2ncnc3c2cnn3C)cc1	?
85	CCCC(C(=O)OCCN(CC)CC)(c1ccccc1)c1ccccc1	?
86	COc1ccc(CCCc2nnc(SCC(=O)Nc3nc(C)cs3)n2C)cc1C	2%
87	COc1ccc(-c2nc(-c3cccc(C)c3)no2)cc1OC	?
88	c1ccc(-n2ncc3c(NCc4ccc5c(c4)OCO5)ncnc32)cc1	0%
89	Cc1onc(-c2ccccc2Cl)c1C(=O)NCc1ccc(S(N)(=O)=O)cc1	3%
90	c1ccc(OCCSc2ncnc3nc[nH]c23)cc1	0%
91	COc1cc(C(=O)O)cc(OC)c1OCc1cc(C(=O)O)oc1C	-14%
92	Cc1cc(C)nc(-n2nc(C)cc2NC(=O)CN2CCCC(C)C2)n1 (stereo unspecified)	-6%
93	O=C(COC(=O)c1ccccc1NC(=O)c1ccco1)Nc1ccc2c(c1)OCO2	25µM*
94	CC1Oc2ccccc2N(Cc2cccnc2)C1=O (stereo unspecified)	-9%
95	O=C(Nc1c2c(nn1-c1ccc(F)cc1)CSC2)c1ccc(S(=O)(=O)N2CCOCC2)cc1	?
96	O=C(NC12CC3CC(CC(C3)C1)C2)c1cnccn1	5%
97	O=CN1CCN(C(=O)c2ccccc2F)CC1	4%
98	CCC(=O)c1ccc(N2CCCCCC2)c(F)c1	-13%
99	Cc1nn(C)c(C)c1S(=O)(=O)N(CC(=O)Nc1ccccn1)c1ccc(C(C)C)cc1	-1%
100	Cc1noc(-c2ccccc2OC(=O)c2ccccc2)n1	13%
101	O=C(NCc1cccnc1)c1cnn2ccccc12	25µM*
102	O=C(CN1CCN(c2ccccn2)CC1)N(c1ccccc1)c1ccc2ccccc2c1	-8%
103	O=S(=O)(c1cccs1)N1CCN(Cc2ccccc2)CC1	-8%
104	COc1ccc(C2CC(c3ccc(Cl)cc3)Nc3nc(NC(=O)c4ccco4)nn32)cc1 (stereo unspecified)	3%
105	O=C(CN1CCCC1)NCC1(c2ccccc2)CCOCC1	15%
106	CC(C)c1nnc(NC(=O)c2cccc(-n3cnnn3)c2)s1	4%
107	CC(=O)Nc1ccc(N=Cc2ccc[nH]2)cc1	1%
108	O=C(O)CCCn1c(=O)[nH]c2ccccc2c1=O	?
109	O=P(/C(=N/O)Sc1ccccc1)(N1CCOCC1)N1CCOCC1	1%
110	CCN(CC)C(=O)CSc1nnc([C@H](CCSC)NC(=O)OC(C)(C)C)o1	-1%
111	Cn1c(C(=O)NCc2ccco2)cc2c(=O)[nH]c3ccccc3c21	32µM*
112	N[C@@](C(=O)O)(c1ccc(P(=O)(O)O)cc1)C1CC1	-1%
113	Cc1ccc(-n2ncc3c(=O)n(CC(=O)NCc4ccco4)cnc32)cc1	-5%
114	CCOC(=O)c1sc(=NC(=O)c2cccc(OC)c2)n(C)c1C	-14%
115	COc1ccc(CCNC(=O)c2cc3sc(Cl)cc3n2C)cc1OC	-6%
116	COC(=O)Cn1nnc(-c2cccc(OC)c2)n1	1%
117	CCc1ccccc1NC(=O)Cn1nnc(-c2cccnc2)n1	10%
118	COCC(=O)NCCNc1nc2ccc(C)cc2cc1C	32µM*
119	C[C@H](c1ccccc1)N1C(=O)[C@H]2[C@@H]3[C@H](O)[C@H](O)CC(=O)[C@H]3CC[C@H]2C1=O	6%[11.4 µM]
120	COc1ccccc1N1CCN(C(=O)CSc2nnc(NC(=O)c3ccco3)s2)CC1	-19%

Later entries
No.	SMILES	HSD17B inhib
121	Cc1cccc(OCc2nnc(SCC(=O)Nc3ccc(C)c(C)c3)o2)c1	6%
122	C=CCn1c(O)c(CN2CCOCC2)c(C)c(C#N)c1=O	-54%
123	CCCCN(Cc1ccccc1)c1ncnc2nc[nH]c12	7%
124	COc1ccccc1-c1cc(C(=O)Nc2ccc(F)cc2F)no1	32µM*
125	COc1ccc(-c2noc(CCC(N)=O)n2)cc1OC	1%
126	CCOC(=O)CSc1nnc(-c2cccnc2)n1Cc1ccccc1	1%
